# VDR inhibitor: Inhibitors of the vitamin D receptor (VDR): qHTS | 0.93% of 400,000 active | VDR-SRC2-3 peptide fluorescence polarization, 2 h | Vitamin D3 receptor (Homo sapiens), P11473 | Potency, µM, without a hit: max response, negative = inhibition, hits mostly inhibitors; active = well fitted inhibition curve with a large enough effect; inconclusive = small, poorly fitted or top-dose-only effect, or another doubt; inactive = no such curve, though single readings can be large or run the other way; note: series mostly up to about 120 µM
# Target sequence (P11473 whole entry, looked up): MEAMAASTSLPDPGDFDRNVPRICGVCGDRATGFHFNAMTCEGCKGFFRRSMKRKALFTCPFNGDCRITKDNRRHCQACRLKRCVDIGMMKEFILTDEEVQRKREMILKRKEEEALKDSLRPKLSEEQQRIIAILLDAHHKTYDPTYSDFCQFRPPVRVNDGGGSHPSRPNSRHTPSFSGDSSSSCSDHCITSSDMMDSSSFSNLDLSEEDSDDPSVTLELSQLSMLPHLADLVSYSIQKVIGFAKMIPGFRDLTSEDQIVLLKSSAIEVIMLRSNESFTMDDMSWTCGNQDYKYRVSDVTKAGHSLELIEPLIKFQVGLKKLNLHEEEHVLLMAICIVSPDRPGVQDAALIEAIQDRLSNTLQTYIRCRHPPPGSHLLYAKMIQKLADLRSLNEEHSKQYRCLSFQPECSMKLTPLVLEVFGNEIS
#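 Fluorescence polarization assay measuring small-molecule disruption of VDR binding to the coregulator peptide SRC2-3. Compounds were pin-transferred (23 nl) into the reagent mix and incubated 2 h at room temperature before reading.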
# * hit, by the source's call; u = inconclusive; & = joins results of further samples. % is set by controls: 0 for no effect and ±100 for the full control effect; potency is the fitted concentration of half-maximal effect. These rows are one share of the data; rates above refer to the full screens.
SMILES,VDR inhibitor
CCCCC(=O)Nc1ccc(C)c(S(=O)(=O)N2CCCCCC2)c1,-9.4%
O=C(NCc1ccc(F)cc1)c1cc(-c2ccco2)on1,4.7%
Oc1c(Cl)cc(Cl)c(Cl)c1CN1CCOCC1,4.4%
CC1CCCN(c2ncnc3c2cnn3-c2ccc(F)cc2)C1 (stereo not drawn),9.4%
Cc1cc(C)c(Cn2c3ccccc3c3cnn(CC(=O)NCCN4CCOCC4)c(=O)c32)c(C)c1,4.5%
CC(C)C[C@H](NC(=O)OC(C)(C)C)C(=O)N[C@@H](CO)[C@H](O)[C@@H]1C[C@@H]1C(=O)NC1CCCCC1,8.0%
COc1ccc(CCn2c3c(c(=O)[nH]c2=S)CN(Cc2ccccc2)CN3)cc1OC,89.1µM*
Cc1ccc(NC(=O)CN2C(=O)NC3(CCc4ccccc43)C2=O)cc1Cl (stereo not drawn),-6.4%
O=C(c1ccccc1)c1nn(-c2ccc(Cl)cc2)c(=O)cc1C(F)(F)F,-4.3%
Cc1ccc(-n2ncc3c(=O)n(Cc4cccc(Cl)c4)cnc32)cc1C,9.8%
COC(=O)[C@H]1Cc2cnoc2C[C@]1(C)C(=O)O,-6.3%
Cc1nn(Cc2ccccc2Cl)c(C)c1NC(=O)C1C2CCC(O2)C1C(=O)O (stereo not drawn),-10.7%
Cc1cccc(OCCSc2nc3ccc(NC(=O)COc4ccccc4)cc3s2)c1,-4.7%
COc1ccc(NC(=O)Nc2cccc(OCc3cc(=O)n4cccc(C)c4n3)c2)c(OC)c1,10.3%
c1ccc(-c2noc(-c3ccno3)n2)nc1,6.2%
Cc1ccoc1C(=O)Nc1cccc(Oc2ccccc2)c1,-6.4%
CN(C)C(=O)CNc1n[nH]c(=S)[nH]c1=O,-15.1%
Cc1ccc(Cl)cc1S(=O)(=O)N1CCC(C(=O)NC2CCN(Cc3ccccc3)CC2)CC1,19.3%
CCN(CC(=O)NC(c1ccccc1)c1ccccc1)Cc1nc2ccccc2c(=O)[nH]1,5.4%
O=C(c1ccccc1)N1CCCC(C(=O)N2CCc3ccccc3C2)C1 (stereo not drawn),14.3%
CC(NC(=O)c1ccc2ccccc2n1)c1ccccc1 (stereo not drawn),5.9%
CN1CCN(CCCc2c3c(cc4c2CCC4)CCC3)CC1,-11.2%
Cc1cc2oc(C(=O)NC3CCS(=O)(=O)C3)c(C)c2cc1C (stereo not drawn),13.1%
COc1ccc(C(=O)NC(=S)NNC(=O)c2ccc(C)cc2)cc1,-7.4%
O=C1CCCC2=C1C(c1cccc(O)c1)C1=C(N2)c2ccccc2C1=O (stereo not drawn),2.3%

# 2 entries from above, with tabs.
Structure	VDR inhibitor
Cc1nn(Cc2ccccc2Cl)c(C)c1NC(=O)C1C2CCC(O2)C1C(=O)O (stereo not drawn)	-10.7%
Cc1cccc(OCCSc2nc3ccc(NC(=O)COc4ccccc4)cc3s2)c1	-4.7%

# Back to the main list, starting 3 compounds before the break.
SMILES,VDR inhibitor
Cc1cc2oc(C(=O)NC3CCS(=O)(=O)C3)c(C)c2cc1C (stereo not drawn),13.1%
COc1ccc(C(=O)NC(=S)NNC(=O)c2ccc(C)cc2)cc1,-7.4%
O=C1CCCC2=C1C(c1cccc(O)c1)C1=C(N2)c2ccccc2C1=O (stereo not drawn),2.3%
CN(C)CCCNc1nc(N)c([N+](=O)[O-])c(NCCO)n1,-6.2%
CCOc1ccc(N(CC(=O)NCc2ccc(F)cc2)C(=O)c2snc(C(N)=O)c2N)cc1,-13.9%
COc1ccc2nc3oc(C(=O)NCc4ccccc4OC)cc3cc2c1,u
CC(C)n1c(-c2ccccc2F)n[nH]c1=S,-1.1%
O=C(Nc1ccc(OC(F)(F)F)cc1)C(NS(=O)(=O)c1cccc2nsnc12)c1ccccc1 (stereo not drawn),-14.8%
CN(CC(=O)Nc1ccccc1C(F)(F)F)C(=O)Cc1ccccc1F,-20.4%
CCOC(=O)C(CCCCCCC(NC(C)=O)(C(=O)OCC)C(=O)OCC)(NC(C)=O)C(=O)OCC,-2.9%
CC(C)SCCCCOc1ccc2ccccc2c1,-1.1%
O=C(CCSc1ccccc1)Nc1ccc(S(=O)(=O)Nc2ncccn2)cc1,-22.0%
O=C(O)CC(c1ccc(F)cc1F)N1Cc2ccccc2C1=O (stereo not drawn),12.4%
COc1ccc(C(Nc2ccccn2)c2ccc3ccc(C)nc3c2O)cc1C (stereo not drawn),u
CC(C)NS(=O)(=O)c1ccc(OCC(=O)NC2CCCCCC2)cc1,-9.3%
Cc1[nH]c(=O)[nH]c(=O)c1N(C)C,-15.1%
O=C(CN1C(=O)S/C(=C\c2ccccn2)C1=O)Nc1ccccc1,-2.1%
Cc1ccc(OC(C)C(=O)N=Nc2c(O)[nH]c3ccc([N+](=O)[O-])cc23)cc1 (stereo not drawn),23.2%
Nc1ncc(S(=O)(=O)NCc2ccccc2F)cn1,2.3%
CC1=C(C(=O)Nc2cccnc2)C(c2cccc(O)c2)n2nc(SCc3ccccc3)nc2N1 (stereo not drawn),7.9%
CCOc1cc(C)c(S(=O)(=O)N2CCCCC2)cc1C,-12.3%
O=C(O)CSc1ncnc2c1oc1ccccc12,2.6%
CC(=O)c1ccc(S(=O)(=O)NC2CC(=O)N(c3cccc(F)c3)C2)cc1 (stereo not drawn),18.8%
COc1cc(C)c(S(=O)(=O)N2CCOCC2)cc1C(C)C,3.5%
O=C(O)Cn1c(-c2cscn2)nc2ccccc21,-16.1%
CCOC(=O)c1c(C)oc2ccc(N(C(=O)c3ccncc3)S(=O)(=O)c3ccc(F)cc3)cc12,-6.0%
CCCCCCCCCCCCCCCC(=O)NCC(COP(=O)([O-])OCC[N+](C)(C)C)OCC (stereo not drawn),4.2%
Cc1ccc(Cn2c(CN3CCOCC3)nc3c2c(=O)n(C)c(=O)n3C)cc1,12.4%
SMILES,VDR inhibitor
COc1ccc(CCNC(=O)COc2ncnc3ccccc23)cc1OC,11.9%
CCN(CC)S(=O)(=O)c1ccc(N2Cc3ccccc3C2=N)cc1,-3.0%
O=C1CN(C(=O)NCCC(=O)NC2CCCCC2)c2ccccc2N1,8.2%
Nc1ccccc1NC(=O)NC(=O)c1ccccc1,10.8%
Cc1c(NC(=O)/C(C#N)=C/c2c(Oc3ccccc3)nc3ccccn3c2=O)c(=O)n(-c2ccccc2)n1C,-29.7%
COc1ccc(Cc2nnc(SCC(=O)Nc3ccc(N4CCOCC4)cc3)o2)cc1,3.8%
CCOc1ccc2nc(NC(=O)CN3CCN(CC)CC3)sc2c1,-21.2%
CC1(C)CC(=O)C2=C(C1)NC(Nc1nc3ccccc3o1)=NC21CCCCC1,-5.7%
O=C1CCC/C1=c1\s/c(=C\c2cccnc2)c(=O)n1-c1ccccc1,23.9%
COc1cccc(CNC(=O)C2CCCN(c3ncnc4onc(-c5ccc(F)cc5)c34)C2)c1 (stereo not drawn),2.1%
COCCCNS(=O)(=O)c1ccccc1,17.1%
CC(=O)NCCc1nc2cc(NC(=O)c3cccs3)ccc2n1C,-20.6%
COC(=O)c1cnc(Nc2cccc(C(F)(F)F)c2)c([N+](=O)[O-])c1,-12.1%
CCOc1ccccc1NS(=O)(=O)c1ccc2oc(=O)ccc2c1,-11.1%
Cc1ccc(NC(=O)CSc2ccc(-c3cccnc3)nn2)cc1Cl,-8.5%
COc1ccc(-c2nnc(SC(C)C(=O)Nc3cccc(Cl)c3)o2)cc1 (stereo not drawn),12.9%
Cc1cccc(C(=O)NCC(=O)OCC(=O)N2CCCCC2)c1,3.2%
COc1ccccc1C/C(N)=N/OC(=O)c1cccc([N+](=O)[O-])c1C,-19.3%
COc1ccc(C(=O)Nc2cc3c4c(c2)C(C)C(=O)N4CCC3)c(OC)c1 (stereo not drawn),6.3%
O=c1[nH]c2cc3c(cc2cc1CN(CCCO)C(=S)NCc1ccco1)OCO3,u
Cc1cc(C)n(CC(=O)NNC(=O)c2ccc(NC(=O)CC#N)cc2)n1,-13.0%
CC(C)CCn1cnc2c1c(=O)n(CC(=O)NC(N)=O)c(=O)n2Cc1ccccc1,22.7%
Cc1cccc(C(C)C)c1NC(=O)C1CCN(S(=O)(=O)c2ccccc2)CC1,-15.4%
Cc1cccc(CC(=O)c2c[nH]c3ccccc23)c1,-7.1%
CC(=O)c1c(C)[nH]c(C(=O)OC2CCCCC2=O)c1C (stereo not drawn),8.4%

# 4 consecutive compounds from above:
SMILES,VDR inhibitor
CC(C)CCn1cnc2c1c(=O)n(CC(=O)NC(N)=O)c(=O)n2Cc1ccccc1,22.7%
Cc1cccc(C(C)C)c1NC(=O)C1CCN(S(=O)(=O)c2ccccc2)CC1,-15.4%
Cc1cccc(CC(=O)c2c[nH]c3ccccc23)c1,-7.1%
CC(=O)c1c(C)[nH]c(C(=O)OC2CCCCC2=O)c1C (stereo not drawn),8.4%

# The listing continues:
SMILES,VDR inhibitor
Cc1cccc(NC(=O)CN(C)C(=O)c2ccc3ccccc3n2)c1C,26.2%
Cc1ccc(C(=O)COC(=O)CCC(=O)Nc2ccc(Oc3ccccc3)cc2)cc1,-1.3%
CCOc1ccc2nc(NC(=O)c3ccc(OC)c(S(=O)(=O)N4CCOCC4)c3)sc2c1,1.4%
CS(=O)(=O)N(CC(=O)N1CCN(c2ccc(F)cc2)CC1)c1cccc(Cl)c1,0.7%
Cc1ccc(CSc2nnc(SCC(=O)N/N=C/c3ccccc3OCC(=O)O)s2)cc1,-27.2%
O=C1NC2(CCCCCC2)C(=O)N1Cc1ccccc1F,-10.9%
CNCCCCOc1ccccc1Cc1ccccc1,0.5%
CC(NC(=O)c1nn(C)c(=O)c2ccccc12)c1ccccc1 (stereo not drawn),-1.5%
CC(=O)Nc1ccc(S(=O)(=O)N2CC(=O)NC(=O)C2)cc1,11.0%
CCCCCOC(=O)c1ccc(NC(=O)c2cccc(NC(=O)c3ccccc3C(=O)O)c2)cc1,-12.7%
Fc1ccc(NC(=S)N2CCOCC2)cc1Cl,-5.6%
Cc1ccc2c(c1)nnn2C1CCN(C(=O)c2ccccc2F)CC1,-9.5%
N#CCNC(=O)C1CC(=O)N(CCc2ccc(F)cc2)C1 (stereo not drawn),5.6%
Cc1ccc(C(C(=O)NCc2ccco2)N(C(=O)Cn2nnc3ccccc32)c2ccccc2)o1 (stereo not drawn),-11.9%
CCOC(=O)CSc1nc2ccsc2c(=O)n1C1CCN(C(=O)OCC)CC1,14.7%
CCc1ccc[n+](-c2[nH]c(=O)sc2/C=N/N=C(\[O-])CCn2c3ccccc3c3ccccc32)c1,3.8%
O=C(c1c[nH]c2ccccc12)N1CCN(Cc2ccccc2)CC1,-12.0%
CCN(C(=O)CSc1nnc(-c2cccc(F)c2)n1N)c1c(N)n(Cc2ccccc2)c(=O)[nH]c1=O,7.3%
CN(Cc1cccc(F)c1)C(=O)c1ccc(S(=O)(=O)C(F)F)cc1,-4.2%
CC(C)n1cnc2c(NCc3ccccc3)nc(NCCCO)nc21,9.4%
CN(C)CCCN(C(=O)c1ccc(C(=O)c2ccccc2)cc1)c1nc2ccc(F)cc2s1,17.9%
CCOC(=O)Cc1csc(NC(=O)c2cc(C)on2)n1,15.3%
CC(C)(C)OC(=O)NC(Cc1ccccc1)C(=O)N1CCCC1C(=O)O (stereo not drawn),-3.1%
Cc1nc(NC(=O)c2ccc(Cl)cc2)nc2cc3c(cc12)OCO3,2.6%
CN(C(=O)CSc1ncc(C(F)(F)F)cc1Cl)c1c(N)n(Cc2ccccc2)c(=O)[nH]c1=O,7.5%
SMILES,VDR inhibitor
O=C(CSCc1ccc(Cl)cc1)NCc1ccccn1,-14.0%
Cc1ccc(CNc2ncnc3onc(C)c23)cc1,18.2%
Cc1ccc(F)cc1NC(=S)NCCc1ccccc1,0.4%
CCn1c(COc2ccc(=O)n(-c3ccccc3)n2)nnc1SCc1ccc(OC)cc1,5.2%
Cn1ncc(Br)c1C(=O)Nc1ccc(Br)cn1,-4.7%
Cc1ccc(NC(=O)c2ccco2)c([N+](=O)[O-])c1,-7.2%
CCCCNc1nc(Oc2ccc(=O)n(C)n2)nc(N(C)C)n1,-1.7%
CCCCN(C)C(=O)Cn1ncc2c([nH]c3ccc(C)cc32)c1=O,16.6%
Cc1ccc(C(=O)NNC(=O)CSc2nnc3c(n2)[nH]c2ccc(C)cc23)cc1,2.8%
Cc1ccc(S(=O)(=O)/C(C#N)=C/c2c(N3CCN(C)CC3)nc3c(C)cccn3c2=O)cc1,-2.8%
COc1ccc(C(=O)OCCN2CCN(C3=NS(=O)(=O)c4ccccc43)CC2)cc1OC,-20.1%
Nc1cc(=O)[nH]c(SCc2nnc(-c3ccccc3)o2)n1,-24.0%
CCN(CC)CCCNc1cc(C(F)(F)F)c(C#N)c2nc3ccccc3n12,12.5%
Cc1ccc(Nc2nc(CSc3nnc(-c4cccnc4)n3-c3ccccc3C)cs2)cc1,0.3%
COc1ccc(O)c(C2=Nc3ccccc3N=C(c3ccccc3)C2)c1,-7.7%&-1.8%
O=C(Nc1ccccc1)OCCOc1ccccc1,4.3%
O=S(=O)(O)c1c(NS(=O)(=O)c2ccccc2)ccc2ccccc12,1.8%
CCCCCn1c(=N)n(CC(O)COc2ccccc2OC)c2ccccc21 (stereo not drawn),-9.9%&-9.9%
O=C(NC1CCCCCC1)C1CCC(CNS(=O)(=O)c2ccc(Br)s2)CC1 (stereo not drawn),-18.7%
COc1cc(C=O)ccc1OCc1ccc(Cl)nc1,-2.7%
O=C(c1cnc(N2CCOCC2)c2ccccc12)N1CCN(c2ccccc2F)CC1,-8.5%
CC1CCCN(C(C(=O)Nc2ccc3c(c2)OCO3)c2ccccc2)C1 (stereo not drawn),9.6%
CSCCC1NC(=O)N(CC(=O)Nc2ccc3c(c2)OCCO3)C1=O (stereo not drawn),7.0%
O=C(CN(CC1CCCO1)C(=O)CCC(=O)Nc1ccccn1)NCC1CCCO1 (stereo not drawn),-17.2%
C=C1C(=O)O[C@H]2C[C@]3(C)C([C@@H](OC(=O)/C(C)=C/C)[C@H]12)[C@](C)(O)CC[C@H]3O (stereo partly drawn),-11.9%
O=C(NC(CO)Cc1ccc([N+](=O)[O-])cc1)C(Cl)Cl (stereo not drawn),14.1%

# Source: PubChem (National Center for Advancing Translational Sciences (NCATS))
